# Ecoli rRNA inh: inhibits bacterial ribosomal RNA function over humanized ribosomes; 350,000 tested, 1.6% active; GFP signal change (wild-type ribosome), % (concentration not given with the values); E. coli WT GFP vs humanized-ribosome RFP mutants, fluorescence, 24 h; active compounds read low; DMSO median 0, no signal -100; AID 720706;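 active = significant combined selectivity score with lowered wild-type GFP, culture density cut under 30%, mutant RFP and density less affected; inactive = any of these conditions unmet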; also: one replicate is shown; some compounds called inactive have numbers as strong as hits
# AF4-AF9 inh: inhibitors of human MLL-AF4/AF9 interaction. AlphaScreen, biotin-AF4 peptide binding to FLAG-AF9. inhibition, % at 10 µM. 350,000 tested, 0.47% active. AID 651704;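 active = every replicate reaching a set inhibition limit, whatever the replicate mean, cut at about 25% in these data; inconclusive = mean inhibition reaches that limit but some replicates miss it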;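 also: 0% = plate neutral control median and 100% = total signal loss; the record names both 10 and 1 µM as test concentration; the first replicate is given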
# Target sequence (P42568 whole entry, looked up): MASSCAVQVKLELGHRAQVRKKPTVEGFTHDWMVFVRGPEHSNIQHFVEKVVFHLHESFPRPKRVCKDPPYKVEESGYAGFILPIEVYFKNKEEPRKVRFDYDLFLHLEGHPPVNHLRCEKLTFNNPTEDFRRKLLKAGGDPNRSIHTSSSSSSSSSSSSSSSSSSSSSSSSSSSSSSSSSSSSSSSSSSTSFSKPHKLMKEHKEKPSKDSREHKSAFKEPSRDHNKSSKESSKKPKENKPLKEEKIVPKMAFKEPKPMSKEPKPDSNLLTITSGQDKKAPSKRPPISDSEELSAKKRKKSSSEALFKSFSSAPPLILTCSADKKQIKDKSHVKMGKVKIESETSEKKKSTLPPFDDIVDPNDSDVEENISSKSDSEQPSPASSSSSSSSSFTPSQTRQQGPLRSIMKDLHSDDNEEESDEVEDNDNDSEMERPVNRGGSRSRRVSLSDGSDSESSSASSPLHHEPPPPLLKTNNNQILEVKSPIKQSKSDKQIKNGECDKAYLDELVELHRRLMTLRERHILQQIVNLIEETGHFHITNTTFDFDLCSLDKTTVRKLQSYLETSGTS
# Ecoli rRNA inh OD600: further read-out of Ecoli rRNA inh, marked with its call; OD600 change, %; measured here: OD600 growth;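 optical density of the mix in the first replicate; 0 = DMSO median and -100 = no signal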
# Ecoli rRNA inh RFP: further read-out of Ecoli rRNA inh, marked with its call; RFP signal change, %; measured here: RFP humanized mutant strains;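 first replicate; 0 = DMSO median and -100 = no signal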
# Active calls of the source: *; ? = inconclusive; & = joins results of further samples. An excerpt; rates above refer to the full screens.
canonical_smiles	Ecoli rRNA inh	Ecoli rRNA inh OD600	Ecoli rRNA inh RFP	AF4-AF9 inh
CCc1nc2ccc(C(=O)N3CCN(S(=O)(=O)CC)CC3)cn2c1N(C=O)Cc1ccc(OC)cc1	9	8	2.5	1.4
O=C([C@@H]1[C@@H](CO)[C@@H]2Cn3c(ccc(-c4ccccc4F)c3=O)[C@@H]2N1CC1CC1)N1CCCCC1	-5	0	-1.0	-0.5
C[C@@H]1CN([C@H](C)CO)C(=O)c2cccc(NS(=O)(=O)c3ccc(F)cc3)c2O[C@H]1CN(C)C	3	0	-0.9	-0.1
C[C@@H]1CCCCO[C@H](CN(C)C(=O)C2CCCCC2)[C@H](C)CN([C@@H](C)CO)C(=O)c2cc(NC(=O)c3ccncc3)ccc2O1	-8	-1	2.2	0.0
C[C@H](NC(=O)C[C@H]1C[C@@H]2c3cc(NC(=O)CN(C)C)ccc3O[C@@H]2[C@H](CO)O1)c1ccccc1	6	13	-2.4	1.5
C[C@H]1CN([C@@H](C)CO)C(=O)c2cc(NC(=O)Cn3cnnn3)ccc2O[C@H]1CN(C)CC1CC1	-3	-3	0.8	19
COc1ccc(S(=O)(=O)N(C)C[C@@H]2Oc3ccc(NS(=O)(=O)c4c(C)noc4C)cc3C(=O)N([C@H](C)CO)C[C@H]2C)cc1	-1	-1	-1.2	2.0
C[C@H](CO)N1C[C@H](C)[C@H](CN(C)Cc2cccc(F)c2)Oc2ncc(C#CCc3ccccc3)cc2C1=O	-2	-5	21	2.6
C[C@@H]1CN([C@H](C)CO)C(=O)Cc2cc(NS(=O)(=O)c3cccs3)ccc2O[C@H]1CN(C)Cc1ccc(C(F)(F)F)cc1	-5	-5	4.2	-0.4
CC1(C(=O)NS(=O)(=O)c2ccc(Cl)cc2)CCN1C(=O)CCc1ccc(Cl)cc1Cl (configuration not stated)	-30*	-20*	1.5*	4.6
C[C@@H]1CN([C@H](C)CO)C(=O)c2cc(-c3ccccc3)cnc2O[C@H]1CN(C)C(=O)c1cccnc1	0	4	0.4	-3.4
CO[C@H]1CN(C)C(=O)c2cc(NS(=O)(=O)c3ccccc3F)ccc2OC[C@@H](C)NC[C@@H]1C	2	-1	-1.5	-1.8
C[C@@H]1CCCCO[C@@H](CN(C)C(=O)c2ccccc2)[C@@H](C)CN([C@@H](C)CO)C(=O)c2cc(NC(=O)c3ccccc3)ccc2O1	1	-1	-3.4	0.3
CCNC(=O)C1(C)CCCN(C(=O)c2c(C)noc2C)C1 (configuration not stated)	18	20	0.4	-4.1
CCOCCC(=O)Nc1ccc2c(c1)c(=O)n(C)n2CC=C(C)C	10	19	0.2	1.2

# The results go on.
canonical_smiles	Ecoli rRNA inh	Ecoli rRNA inh OD600	Ecoli rRNA inh RFP	AF4-AF9 inh
C[C@@H]1CCCCO[C@@H](CN(C)S(=O)(=O)c2ccccc2)[C@H](C)CN([C@H](C)CO)C(=O)c2cc(NC(=O)NC3CCCCC3)ccc2O1	-2	-3	1.5	1.6
C[C@H]1CN([C@@H](C)CO)C(=O)c2cccc(NS(=O)(=O)c3ccccc3)c2O[C@H]1CN(C)Cc1ccncc1	0	-1	0.2	-1.8
CN(C)CC(=O)Nc1ccc2c(c1)[C@@H]1C[C@@H](CC(=O)NC3CCCC3)O[C@@H](CO)[C@@H]1O2	1	3	-1.2	-1.1
COc1ccc(S(=O)(=O)Nc2ccc3c(c2)CC(=O)N([C@@H](C)CO)C[C@@H](C)[C@@H](CN(C)Cc2ccc(Oc4ccccc4)cc2)O3)cc1	-1	-2	3.3	0.5
CO[C@H]1CN(C)C(=O)c2cc(NC(=O)C3CC3)ccc2OC[C@H](C)N(CC2CC2)C[C@H]1C	1	-5	0.4	-1.5
COc1ccc(NC(=O)CSc2nnnn2C2CCCC2)cc1S(=O)(=O)N1CCOCC1	-1	-1	1.1	-0.1
N#C[C@@H]1[C@@H](c2ccccc2-c2cccc(F)c2)[C@H](CO)N1C(=O)C1CCOCC1	6	15	1.5	-2.1
COCc1cn(CC[C@@H]2CC[C@@H](NC(=O)Nc3ccc(C(F)(F)F)cc3)[C@@H](CO)O2)nn1	-2	-1	-1.0	2.8
CCCCCNC(=O)C(c1ccc(OC)cc1)n1c(=O)c(-c2ccco2)nc2ccccc21 (configuration not stated)	4	13	4.4	0.2
C[C@@H]1CN([C@@H](C)CO)S(=O)(=O)c2ccc(C#Cc3ccncc3)cc2O[C@@H]1CN(C)C(=O)c1ccncc1	-1	-1	0.4	-6.4
CC(=O)N(C)C[C@H]1Oc2cc(C#CCN(C)C)ccc2S(=O)(=O)N([C@@H](C)CO)C[C@H]1C	-1	4	-1.2	-2.8
O=C(O)C[C@@H]1CC[C@H](NC(=O)Nc2cc(F)ccc2F)[C@H](CO)O1	-1	-3	0.4	-2.2
CN1CCN(C(=O)C[C@H]2CC[C@H]3[C@@H](COC[C@H](O)CN3CC3CCCC3)O2)CC1	7	11	-0.7	-3.2
C/C=C/c1cnc2c(c1)C(=O)N([C@@H](C)CO)C[C@H](C)[C@H](CN(C)CC1CCOCC1)O2	5	14	-1.8	-3.8
C[C@H]1CN([C@@H](C)CO)C(=O)Cc2cc(NC(=O)Cn3cnnn3)ccc2O[C@@H]1CN(C)Cc1ccccc1	4	7	1.4	0.8

# (listing goes on)
canonical_smiles	Ecoli rRNA inh	Ecoli rRNA inh OD600	Ecoli rRNA inh RFP	AF4-AF9 inh
Cc1cc(C)n2c(Nc3ccc4c(c3)OCCO4)c(-c3ccc(F)cc3)nc2n1	-3	6	9.8	9.7
CCNC(=O)C[C@@H]1CC[C@@H]2[C@H](COc3ccc(NC(=O)c4ccc5c(c4)OCO5)cc3C(=O)N2C)O1	1	-7	0.5	-1.9
CN(C[C@H]1[C@@H](c2ccccc2)[C@H](CO)N1C(=O)C1CCC1)C(=O)c1ccccn1	0	-8	-0.2	-2.6
COc1cccc(C#Cc2ccc([C@@H]3[C@@H](CO)N(C(=O)c4ccccn4)[C@H]3C#N)cc2)c1	2	0	11	1.9
CN1CCN(C(=O)C[C@@H]2C[C@@H]3c4cc(NC(=O)Nc5ccc(F)cc5)ccc4O[C@@H]3[C@H](CO)O2)CC1	1	2	0.6	4.7
O=C(C[C@H]1C[C@@H]2c3cc(NS(=O)(=O)c4ccc(F)cc4)ccc3O[C@@H]2[C@H](CO)O1)NCc1ccc(Oc2ccccc2)cc1	0	-10	12	0.6
Cc1ccc(S(=O)(=O)N[C@H]2C=C[C@H](CC(=O)NCc3ccc(Cl)c(Cl)c3)O[C@@H]2CO)cc1	-13	-25	-0.1	-1.5
COCC(=O)N[C@H]1CC[C@@H](CC(=O)N2CCCCC2)O[C@H]1CO	0	6	-1.1	-3.2
CC(C)NC(=O)N1C[C@@H]2[C@H](c3ccccc31)[C@H](CO)N2C(=O)c1ccccc1	2	2	-2.5	-0.9
CO[C@@H]1CN(C)C(=O)c2ccc(NC(=O)C3CCC3)cc2OC[C@@H](C)N(Cc2ccccn2)C[C@H]1C	-2	2	-1.8	-3.6
CCCNC(=O)N1CC(=O)N2[C@H](C1)[C@H](c1ccc(C#Cc3ccc(F)cc3)cc1)[C@@H]2CO	-14	-59	19	0.5
C[C@@H]1CN([C@@H](C)CO)C(=O)c2cc(NC(=O)c3ccccc3)ccc2O[C@@H](C)CCCCO[C@@H]1CN(C)Cc1ccc(C(=O)O)cc1	-1	7	-0.6	-2.7
CCC(=O)N1CC2(C1)[C@H](c1ccccc1)[C@H](CO)N2C(=O)c1cccnc1	2	7	-2.7	-1.1
CCCNC(=O)C[C@H]1CC[C@@H]2[C@H](COC[C@H](O)CN2Cc2ccc(Cl)c(Cl)c2)O1	-4	-3	-4.2	-0.6
COCC(=O)N(C)C[C@H]1Oc2ncc(C#CCC3CCCC3)cc2C(=O)N([C@H](C)CO)C[C@@H]1C	0	3	-0.6	1.5

# Continued.
canonical_smiles	Ecoli rRNA inh	Ecoli rRNA inh OD600	Ecoli rRNA inh RFP	AF4-AF9 inh
C[C@@H](NC(=O)C[C@@H]1C[C@@H]2c3cc(NC(=O)CC4CC4)ccc3O[C@@H]2[C@H](CO)O1)c1ccccc1	0	0	-3.6	-0.1
Cc1noc(C)c1COc1ccc(C(=O)N2CCN(S(=O)(=O)c3ccc(F)cc3)CC2)cc1	6	21	-1.6	-3.0
COc1cccc(-c2ccc3c(c2)[C@@H]2[C@@H](CCN2C(=O)c2ccccc2F)[C@H](CO)N3C)c1	-9	-14	2.1	4.4
COc1ccc(S(=O)(=O)Nc2ccc3c(c2)C(=O)N([C@H](C)CO)C[C@@H](C)[C@@H](CN(C)C(=O)c2ccccc2)OCCCC[C@H](C)O3)cc1	-3	-13	-0.7	-1.1
Cc1noc(C)c1S(=O)(=O)Nc1ccc2c(c1)C(=O)N([C@H](C)CO)C[C@H](C)[C@H](CN(C)C(=O)Nc1ccc3c(c1)OCO3)OCCCC[C@H](C)O2	-3	0	-2.1	2.7
C[C@@H]1CCCCO[C@@H](CN(C)S(=O)(=O)c2ccccc2)[C@@H](C)CN([C@@H](C)CO)C(=O)c2cc(NS(C)(=O)=O)ccc2O1	-5	-3	-1.1	0.5
CC(=O)NCCNc1nc(NC(C)C)nc2cc(-c3ccccc3)sc12	-10	-12	-3.6	9.0
CN(C)C(=O)[C@@H]1[C@@H](CO)[C@@H]2Cn3c(ccc(C4=CCCC4)c3=O)[C@@H]2N1Cc1ccc2c(c1)OCO2	-7	-7	0.5	2.3
CCCNC(=O)C[C@@H]1CC[C@H]2[C@@H](COc3ccc(NC(=O)c4cccs4)cc3C(=O)N2C)O1	-1	-2	-0.8	0.3
Cc1noc(C)c1NC(=O)Nc1ccc2c(c1)CC(=O)N([C@H](C)CO)C[C@@H](C)[C@H](CN(C)C(=O)Nc1ccc(F)cc1)O2	8	2	-1.8	1.8
C[C@@H]1CN([C@H](C)CO)C(=O)Cc2cc(NC(=O)CCCCCC(=O)Nc3ccccc3N)ccc2O[C@@H]1CN(C)S(=O)(=O)c1ccccc1	-2	1	2.7	-1.0
O=C(C[C@H]1CC[C@H](NC(=O)c2ccncc2)[C@H](CO)O1)NCC1CC1	2	3	0.2	-3.8
CCN1[C@@H]2c3ccc(-c4cccc(OC)c4)c(=O)n3C[C@@H]2[C@@H](CO)[C@@H]1C(=O)OC	5	8	1.6	-0.3
C/C=C/c1ccc([C@H]2[C@@H](CO)N(C(=O)C3CCC3)[C@@H]2CNC(=O)NC(C)C)cc1	-3	-1	-0.5	-1.4
O=C(C1CCC1)N1CC(=O)N2[C@@H](CO)[C@@H](c3ccc(-c4cccnc4)cc3)[C@@H]2C1	3	17	-1.8	-3.4

# Entries of single compounds as entered above. Order of screens: Ecoli rRNA inh, Ecoli rRNA inh OD600, Ecoli rRNA inh RFP, AF4-AF9 inh
# O=C(C1CCC1)N1CC(=O)N2[C@@H](CO)[C@@H](c3ccc(-c4cccnc4)cc3)[C@@H]2C1 across the screens: 3, 17, -1.8, -3.4
# C/C=C/c1ccc([C@H]2[C@@H](CO)N(C(=O)C3CCC3)[C@@H]2CNC(=O)NC(C)C)cc1 across the screens: -3, -1, -0.5, -1.4
# CN(C)C(=O)[C@@H]1[C@@H](CO)[C@@H]2Cn3c(ccc(C4=CCCC4)c3=O)[C@@H]2N1Cc1ccc2c(c1)OCO2 across the screens: -7, -7, 0.5, 2.3
# COc1ccc(S(=O)(=O)Nc2ccc3c(c2)C(=O)N([C@H](C)CO)C[C@@H](C)[C@@H](CN(C)C(=O)c2ccccc2)OCCCC[C@H](C)O3)cc1 across the screens: -3, -13, -0.7, -1.1
# Cc1noc(C)c1S(=O)(=O)Nc1ccc2c(c1)C(=O)N([C@H](C)CO)C[C@H](C)[C@H](CN(C)C(=O)Nc1ccc3c(c1)OCO3)OCCCC[C@H](C)O2 across the screens: -3, 0, -2.1, 2.7

# (listing goes on)
canonical_smiles	Ecoli rRNA inh	Ecoli rRNA inh OD600	Ecoli rRNA inh RFP	AF4-AF9 inh
COc1ccccc1-c1ccc2n(c1=O)C[C@@H]1[C@@H](CO)[C@H](C(=O)N3CCCCC3)N(C)[C@H]21	-1	0	-1.6	0.1
COCC(=O)N1C[C@H](C)[C@H](OC)CN(C)C(=O)c2cc(NC(=O)c3ccccc3)ccc2OC[C@@H]1C	1	0	1.1	-4.9
Cc1noc(C)c1NC(=O)N(C)C[C@H]1OCCCC[C@H](C)Oc2ccc(NS(=O)(=O)c3ccc(F)cc3)cc2C(=O)N([C@H](C)CO)C[C@@H]1C	-2	2	-0.5	-7.7
Cc1ccc(-c2cnc3c(c2)C(=O)N([C@H](C)CO)C[C@@H](C)[C@H](CN(C)C(=O)c2ccccc2)O3)cc1	3	0	-2.5	0.9
CO[C@H]1CN(C)C(=O)c2cc(NC(=O)c3ccccc3)ccc2OC[C@H](C)NC[C@@H]1C	-2&9	-1&10	0.0&1.9	-0.6&2.5
OC(c1cccc(Cl)c1)c1nc(-c2ccccc2)cs1 (configuration not stated)	-55	-79	-16	-3.9
COc1cccc(-c2cc(NC=O)c3ncc(-c4cccc(C(=O)NCCN(C)C)c4)n3c2)c1	1	5	7.8	?
COC(=O)c1ccc2nc(-c3ccc(Cl)cc3)c(Cc3ccc(OC)cc3C)n2c1	-12	-6	2.6	-0.5
C[C@@H]1CN([C@@H](C)CO)C(=O)c2cc(NS(=O)(=O)c3cccs3)ccc2O[C@H]1CN(C)Cc1ccc(Oc2ccccc2)cc1	1	-22	6.1	5.3
O=C(C[C@@H]1CC[C@@H]2[C@H](COC[C@@H](O)CN2S(=O)(=O)c2ccccc2)O1)Nc1ccc(-c2ccccc2)cc1	-3	-14	9.6	-2.8
C[C@@H]1CN([C@H](C)CO)C(=O)c2cc(NC(=O)Cn3cnnn3)ccc2O[C@@H]1CN(C)Cc1ccc2c(c1)OCO2	-1	-4	-0.9	1.8

# From PubChem BioAssay
